# High-throughput results as filed in PubChem.
# gsp ag = gsp mutant agonism; gsp mutant cells, cAMP HTRF, 30 min; control for the full effect not named in the record; Potency, µM (doses to about 76.9 µM), without a hit: top-dose activation (cAMP increase), usual class: activators; 340,000 compounds, 0.13% hits; AID 624287; active = well fitted activation curve with a large enough effect; inconclusive = small, poorly fitted or top-dose-only effect, or another doubt; inactive = no such curve, though single readings can be large or run the other way; cell line not stated here;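 note: phosphodiesterase inhibitor Ro 20-1724 added with compounds to block cAMP breakdown; potency is the fitted concentration of half-maximal effect; nearly all actives have a fitted effect of over 60% in size; about a fifth of the inactives were tested at one dose only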
#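 Cells in DMEM/10% FBS with G418 were pretreated with compounds in DMSO plus […] (300 uM stock) for 30 min at 37C. cAMP was measured by HTRF (cAMP-d2 plus anti-cAMP antibody-K) after 30 min at room temperature.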
# gsp antagonist = antagonizes gsp, the McCune-Albright syndrome mutation. AID 624288. Potency, µM (top dose mostly 76.9 µM), for the others: top-dose activity change, negative = inhibition, actives largely listed as inhibitors. gsp-mutant cells, cAMP HTRF, 30 min; control for the full effect not named in the record. 340,000 compounds, 0.4% hits; active = falling curve of any shape with a large fitted effect; inconclusive = falling curve, mostly with a smaller effect; inactive = flat or rising curve; cell line not stated here;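 note: intracellular cAMP measured with PDE inhibitor Ro 20-1724 present during compound exposure; potency is the fitted concentration of half-maximal effect; % is set by controls: 0 for no effect and ±100 for the full control effect; nearly all actives have a fitted effect of over 65% in size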
#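 HTRF cAMP measurement after 30 min RT detection following 30 min, 37C compound treatment alongside […] (added as 300 uM solution) in G418-selected cells seeded at 2000/well and grown 16–24 h.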
# Six1-Eya2 inh = blocks human Six1 binding to Eya2. Q15475+O00167. AlphaScreen GST-Six1/His-Eya2 binding, biochemical; active compounds read low; control for the full effect not named in the record. activity change, % (test concentration not listed). 360,000 compounds, 0.56% hits. AID 651725; in the data active = activity change below about -65%; inconclusive = about -30% to -65%; inactive = above about -30%; note: % is set by controls: 0 for no effect and ±100 for the full control effect
# Target sequence (O00167 whole entry, looked up): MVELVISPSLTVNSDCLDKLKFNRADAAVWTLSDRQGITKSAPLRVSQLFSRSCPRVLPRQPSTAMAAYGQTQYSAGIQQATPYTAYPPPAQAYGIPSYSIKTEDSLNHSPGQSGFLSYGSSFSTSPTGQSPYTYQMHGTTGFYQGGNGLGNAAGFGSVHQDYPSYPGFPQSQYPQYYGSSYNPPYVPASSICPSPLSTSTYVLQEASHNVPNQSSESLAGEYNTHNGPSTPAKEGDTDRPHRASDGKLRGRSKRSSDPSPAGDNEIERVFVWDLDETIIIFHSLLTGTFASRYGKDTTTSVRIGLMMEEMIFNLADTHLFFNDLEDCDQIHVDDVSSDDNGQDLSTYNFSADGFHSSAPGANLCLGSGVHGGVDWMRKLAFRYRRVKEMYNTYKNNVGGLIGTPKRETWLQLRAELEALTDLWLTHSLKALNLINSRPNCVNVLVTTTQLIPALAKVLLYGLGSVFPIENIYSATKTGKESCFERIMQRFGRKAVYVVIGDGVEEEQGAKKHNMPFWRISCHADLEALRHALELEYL
# Target sequence (Q15475 whole entry, looked up): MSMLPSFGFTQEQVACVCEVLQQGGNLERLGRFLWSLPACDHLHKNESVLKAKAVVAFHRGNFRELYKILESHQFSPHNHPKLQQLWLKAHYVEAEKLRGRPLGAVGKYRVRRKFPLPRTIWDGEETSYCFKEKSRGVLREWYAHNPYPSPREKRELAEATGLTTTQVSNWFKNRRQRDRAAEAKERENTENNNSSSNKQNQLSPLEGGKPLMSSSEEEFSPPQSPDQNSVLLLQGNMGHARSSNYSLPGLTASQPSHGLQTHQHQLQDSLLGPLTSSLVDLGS
#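 Compounds are tested against tagged Six1 and Eya2 proteins bridged by glutathione donor and nickel acceptor beads; after a one-hour incubation at 37 °C without light, AlphaScreen emission is recorded.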
# D2 agonist = agonists of human D2 dopamine receptor (beta-arrestin) | DiscoveRx PathHunter D2 beta-arrestin, luminescence, 90 min; 100% = 57 uM dopamine signal | activation, % (test concentration not listed) | 360,000 compounds, 0.084% hits | AID 624465; in the data active = activation above about 40%; inconclusive = about 15% to 40%; inactive = below about 15%; note: compound concentration not given in the record; the text of the record calls up to 30% inactive
#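 DiscoveRx PathHunter D2 beta-arrestin cells (2,100/well) attached overnight, then compound-stimulated 90 min at 37 C in HBSS/10 mM HEPES/0.1% Tween-20 buffer; beta-galactosidase complementation read by luminescence after 1 h at ambient temperature. Dopamine 57 uM final (EC100) as control.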
# D2 PAM = potentiates the human D2 dopamine receptor allosterically | P14416 | DiscoveRx D2 beta-arrestin cells, luminescence, 90 min; 100% = 57 uM dopamine signal | potentiation, % (no concentration beside the values) | 360,000 compounds, 0.23% hits; active = potentiation of 50% or more; inconclusive = 30% to 50%; inactive = 30% or less;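 note: compound concentration not given in the record; tested on top of an EC20 dose of dopamine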
#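 D2 cells co-treated with compound plus 50 nM dopamine (EC20) for 90 min at 37 deg C to detect potentiation. Beta-arrestin recruitment was read as enzyme-fragment luminescence after 1 h at ambient temperature. Full response was set by 57 uM dopamine.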
# CtBP-E1A inh = blocks the CtBP interaction with E1A. activity change, % (concentration not given with the values). 340,000 compounds, 0.49% hits. AlphaScreen GST-E1A/His-CtBP binding, 1536-well; active compounds read low; control for the full effect not named in the record. AID 651724; in the data active means activity change below about -65%; inconclusive means about -30% to -65%; inactive means above about -30%; note: % is set by controls: 0 for no effect and ±100 for the full control effect
#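 Homogeneous bead-based format: GST-tagged E1A captured on glutathione donor beads, His-tagged CtBP on nickel acceptor beads; compounds precede bead addition by 2 h at 37 °C.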
# Active calls of the source: *; ? = inconclusive; . = no result given; [ ] = dose if it differs, or a comment.
SMILES,gsp ag,gsp antagonist,Six1-Eya2 inh,D2 agonist,D2 PAM,CtBP-E1A inh
COc1ccc(C(c2nnnn2CC2CCCO2)N2CCC(C(N)=O)CC2)cc1 (stereo not drawn),-10%,11%,-2,-1.6,-3,-4
O=C(O)CC(C(=O)O)n1nc(-c2ccccc2)cc1-c1ccccc1 (stereo not drawn),-10%,-9%,-1,-4.5,-22,-1
COc1ccc(-c2csc(C(C)(O)c3cccc(F)c3)n2)cc1OC (stereo not drawn),.,.,-9,-1.8,-1,-4
O=C(O)c1ccccc1NN=C1CCCCC1,25%[15.4 µM],0%,4,-7.6,-5,5
CN1CCN(C(=O)C2=C[C@@H](c3csc4ccccc34)C[C@@H](OCc3ccc(CO)cc3)O2)CC1,.,11%,0,-8.1,-8,1
COc1ccc(C)cc1NC(=O)C(OC(=O)C1=NNC(=O)CC1)c1ccccc1 (stereo not drawn),?,-11%,0,-1.1,-8,.
CCOc1ccc(/C(O)=C2/C(=O)C(=O)N(c3ccccn3)C2c2ccc(C)cc2)c(C)c1 (stereo not drawn),40µM*,8%,1,-5.8,-4,-2
Cc1ccccc1-c1nnn(CC(=O)NCc2ccc3c(c2)OCO3)n1,7%,4%,4,0.8,-2,6
CCOC(=O)CNC(=O)c1cn(CC(C)C)c(=O)c2cc(OC)c(OC)cc12,0%,13%,1,0.0,-10,-9
O=C(c1nnc(Cc2ccc(Cl)cc2)o1)N1CCc2ccccc2C1,?,0%,-1,-0.3,-3,8
C/C=C\C=C\C(=O)N1CC2(CC(c3cccc(NC(=O)/C(C)=C\C)c3)=NO2)C[C@H]1C(N)=O (stereo partly drawn),.,4%,4,-3.7,-7,-6
Cc1ccc(CC(=O)Nc2nccs2)cc1,21%,4%,-1,1.6,?,.
O=C(CCN1C(=O)c2ccccc2C1=O)Nc1ccc(-c2nc3ccccc3s2)cc1,-25%,5%,14,-2.9,-14,5
Cc1ccc(C(=O)NC(C)c2ccc(S(N)(=O)=O)cc2)s1 (stereo not drawn),-11%[15.4 µM],10%,0,-4.8,5,5
Cc1ccc(CSCCNC(=O)c2ccccc2)cc1,6%,-16%,1,1.7,-10,-1
CCN1CCCC1CNC(=O)C(NC(=O)C1CCC(C)CC1)C(C)C (stereo not drawn),3%,8%,4,-2.5,-12,-7
CCN1CC=C2C(C#N)=C(N)C(C#N)(C#N)C(CCc3ccccc3)C2C1 (stereo not drawn),-38%[inhibitor],-17%,-28,3.2,-2,?
Cc1ccc(NC(=O)C2CCCN(C(=O)c3ccc(Cl)cc3)C2)cc1C (stereo not drawn),-22%,-14%,1,1.4,-16,0
CCCC(C)(C)C(=O)N1CCC1(C)C(=O)Nc1ccc(OC)c(OC)c1 (stereo not drawn),.,.,0,2.9,-5,-8
CCOC(=O)C1(Cc2ccccc2)CCN(Cc2cccn2-c2nccs2)CC1,-25%,1%,-19,-6.0,-26,-10
O=C(NC1CCN(Cc2ccccc2)CC1)c1c(Cl)cccc1Cl,-42%[inhibitor],5%,2,-2.5,-25,-1
CCC1=Nc2cc(C(=O)NCCN3CCOCC3)ccc2Sc2ccccc21,1%,15%,5,1.2,-11,-4
COc1ccc(N2C(=O)C3CCCN3C2c2cccc(C)c2)cc1 (stereo not drawn),-30%,6%,2,-1.5,-1,2
CC(OC(=O)c1ccc(S(=O)(=O)N(C)C)cc1)C(=O)Nc1ccc(Cl)cn1 (stereo not drawn),2%[15.4 µM],10%,-4,-0.1,-5,1
Cc1ccc(C(=O)CSc2cc(C)[nH]c(=O)n2)cc1,-10%,-3%,-6,-0.8,-2,.
Cc1ccc(CNCC(=O)Nc2ccc(N3CCOCC3)cc2)cc1,-6%[15.4 µM],6%,3,-2.8,-8,-6
CCCC1=NN(C(=O)Cc2ccc(OC)c(OC)c2)C(O)(C(F)(F)F)C1 (stereo not drawn),6%,7%,7,-6.3,-17,.
COc1ccc(C(=O)N/N=C/c2ccc(OC)c(OS(=O)(=O)c3ccccc3)c2)cc1,-14%[15.4 µM],-25%,-26,-0.8,-7,-25
CCOC(=O)c1c(NC(=O)CSc2nnc(C)s2)sc2c1CCC(C)C2 (stereo not drawn),-13%,-17%,12,-3.2,-8,1
CCCN(CC(=O)Nc1ccc(F)c(F)c1F)C(=O)Cc1ccc(OC)c(S(=O)(=O)N2CCOCC2)c1,11%,-4%,11,-1.2,0,.
CCCCc1cc(=O)oc2cc(C)cc(OCC(=O)Nc3ccccn3)c12,8%,-2%,3,-4.3,-3,-9
O=C(Cc1cccs1)Nc1nc2c(s1)CCCC2,?,4%,-10,-0.2,-2,-11
CCN(CC)C(=O)c1c(-c2ccccc2)oc2ccc(O)cc12,-1%,-1%,-8,-2.6,1,-22
CCOC(=O)C(Cc1nc(OCc2ccccc2)cc(OCc2ccccc2)n1)=NO,-98%[inhibitor],-15%,-7,-7.9,3,1
O=C(CCCOc1ccc(Cl)cc1)N1CCOCC1,0%,10%,0,-1.2,-4,5
O=C(Nc1ncc([N+](=O)[O-])s1)C1COc2ccccc2O1 (stereo not drawn),-39%[inhibitor],40µM*,-3,-5.7,-13,8
O=C(O)c1cccc(CN2C(=O)S/C(=C/c3ccccc3[N+](=O)[O-])C2=O)c1,-5%[15.4 µM],?,-10,-0.2,12,-20
CCOC(=O)N1CCC(NC(=O)c2cc3c(=O)[nH]c4ccccc4c3n2C)CC1,23%,-4%,-6,-8.7,-5,-5
Cc1c(Br)c([N+](=O)[O-])nn1C(C)C(=O)NCC1CCCO1 (stereo not drawn),2%,5%,4,0.1,-12,.
COc1ccccc1NC(=O)C(CC(C)C)NC(=O)C1CCCCC1 (stereo not drawn),-32%,2%,2,-3.3,-12,-3
Cc1cccc(N(CC(=O)NCc2ccco2)C(=O)CCC(=O)Nc2ccccn2)c1,-31%,2%,-14,-0.5,-23,-3
C=CCn1c(SCc2cc(C(=O)OC)c(C)o2)nnc1-c1ccncc1,-36%[inhibitor],0%,-3,-1.6,6,0
Cc1nc(NC(=O)c2ccccc2)sc1-c1csc(NCCc2ccccc2)n1,0%,-3%,-6,-3.1,-2,-10
Cc1ccc(/C=C/S(=O)(=O)Nc2ccc(C)cc2)cc1,-4%,10%,-1,1.8,-3,-1
CN(C)CCCN(C(=O)c1cccc(N2C(=O)CCC2=O)c1)c1nc2cc3c(cc2s1)OCO3,21%,-19%,2,-1.3,-9,4

# 2 neighbouring compounds out of the list so far:
SMILES,gsp ag,gsp antagonist,Six1-Eya2 inh,D2 agonist,D2 PAM,CtBP-E1A inh
O=C(Nc1ncc([N+](=O)[O-])s1)C1COc2ccccc2O1 (stereo not drawn),-39%[inhibitor],40µM*,-3,-5.7,-13,8
O=C(O)c1cccc(CN2C(=O)S/C(=C/c3ccccc3[N+](=O)[O-])C2=O)c1,-5%[15.4 µM],?,-10,-0.2,12,-20

# Next section:
SMILES,gsp ag,gsp antagonist,Six1-Eya2 inh,D2 agonist,D2 PAM,CtBP-E1A inh
O=[N+]([O-])c1ccc(N/N=C/c2cn(-c3ccccc3)nc2-c2ccccc2)cc1,0%,3%,10,-3.7,2,-2
CN(Cc1nc2ccccc2c(=O)[nH]1)C(=O)c1ccccc1OCc1ccc(Cl)cc1,?,-13%,3,-2.0,0,.
COc1ccc2nc(N3C(=O)CC(C(C)c4ccccc4)C3=O)sc2c1 (stereo not drawn),-1%,-2%,-1,-3.0,-2,1
CCCCOC(=O)Nc1nccs1,-2%,14%,4,1.0,-16,2
Cc1ccccc1OCCNc1cc(N2CC(C)NC(C)C2)ccc1[N+](=O)[O-] (stereo not drawn),?,8%,?,-3.1,-6,-9
O=C(CCNC(=O)c1ccc(Cl)cc1)Nc1ccccc1N1CCCC1,-2%,?,-24,-6.0,-15,27
CC(C)c1nc(C#N)c(N2CCOCC2)o1,6%,8%,2,-2.6,-17,-6
O=C(c1ccccc1Cl)N1CCn2c1nc1ccccc12,12%[15.4 µM],12%,17,-4.1,-4,10
CCSc1nnc(-c2ccc(S(=O)(=O)N3CCCC3)cc2)n1C,-28%,10%,3,2.1,-21,12
COc1ccc(C(=O)NCCc2nnc3ccc(SCC(=O)Nc4cc(C)on4)nn23)cc1,24%[15.4 µM],10%,-2,0.4,-13,-6
CC(C)CNC(=O)c1ccccc1NC(=O)c1ccc(CSc2ccccc2)cc1,-23%,-6%,2,-8.2,4,3
O=C(NCC1CCCO1)c1ccc2c(=O)n(CC3CCCO3)c(=S)[nH]c2c1 (stereo not drawn),12%,-17%,-1,-1.2,-3,-17
CCC(=O)c1ccc(OCC(=O)OCC(=O)Nc2sccc2C(N)=O)cc1,?,-1%,-1,-1.9,-3,-6
COC(=O)c1cc(NC(=O)c2cccnc2)cc(C(=O)OC)c1,-34%[inhibitor],4%,-4,-1.6,16,.
Cc1cccc(C)c1OCCN1CCOCC1,-5%,9%,-6,1.0,-32,.
Cc1cc(C)nc(/N=c2/ssnc2Cl)c1,-70%,4%,4,-0.1,-1,2
COc1ccc(C(C)=O)cc1COc1cccc2cccnc12,-13%,-1%,0,6.2,?,.
CCOC(=O)NC(=O)COC(=O)c1ccc(O)cc1,-1%[15.4 µM],5%,0,-2.5,-1,5
O=C(Cc1ccc(F)cc1)N/N=C/c1ccc(-c2ccc(Cl)c(C(=O)O)c2)o1,1%,5%,-11,2.7,-10,.
COc1cccc(N2CCN(C(=O)c3cc4c(s3)-c3ccccc3OC4)CC2)c1,?,-5%,-7,-0.1,4,-8
CCc1cccc(C)c1N=Cc1c(O)c2ccccc2oc1=O,12%[15.4 µM],-37%,9,-0.2,-10,4
N#C/C(=C\c1ccc(OC(=O)c2ccc(Br)s2)cc1)c1nc2ccccc2[nH]1,-7%,10%,?,1.8,15,36
O=C(COC(=O)c1cccnc1Cl)c1ccc(Cl)s1,31%,-1%,4,-8.6,-6,-6
COc1ccc(CCC(=O)Nc2nc(C)c(C(=O)N(C)C)s2)cc1,21%,9%,0,?,-39,0
CS(=O)(=O)N1CCN(c2ccccc2NC(=O)c2ccc3c(c2)OCCO3)CC1,-14%,?,7,1.6,-4,6
CCOC(=O)C1CCN(C(=O)CN2C(=O)CSc3ccc(S(=O)(=O)N4CCOCC4)cc32)CC1,3.5µM*,5%,0,4.3,-1,1
Cn1sc(=O)c2cc(S(=O)(=O)NC3CC3)ccc21,4%[15.4 µM],-1%,3,-3.3,-16,2
Cc1cccc(C(=O)Nc2nnc(-c3ccncc3)o2)c1,?,-3%,-27,0.0,2,-25

# Compound profiles (already shown).
# Cc1c(Br)c([N+](=O)[O-])nn1C(C)C(=O)NCC1CCCO1 (stereo not drawn) reads gsp ag = 2%; gsp antagonist = 5%; Six1-Eya2 inh = 4; D2 agonist = 0.1; D2 PAM = -12; CtBP-E1A inh = .
# Cc1ccc(CNCC(=O)Nc2ccc(N3CCOCC3)cc2)cc1 reads gsp ag = -6%[15.4 µM]; gsp antagonist = 6%; Six1-Eya2 inh = 3; D2 agonist = -2.8; D2 PAM = -8; CtBP-E1A inh = -6
# CCOC(=O)c1c(NC(=O)CSc2nnc(C)s2)sc2c1CCC(C)C2 (stereo not drawn) reads gsp ag = -13%; gsp antagonist = -17%; Six1-Eya2 inh = 12; D2 agonist = -3.2; D2 PAM = -8; CtBP-E1A inh = 1
